gsp antag: gsp mutant antagonism; gsp-mutant cells, cAMP HTRF, 30 min; control for the full effect not named in the record; Potency, µM (top dose mostly 76.9 µM), inactives show at the highest dose activity change, negative = inhibition, most hits filed as inhibitors; actives 0.4% (n = 340,000); AID 624288; active = falling curve of any shape with a large fitted effect; inconclusive = falling curve, mostly with a smaller effect; inactive = flat or rising curve; cell line not stated here;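 also: intracellular cAMP measured with PDE inhibitor Ro 20-1724 present during compound exposure; potency is read from the fitted curve at half-maximal effect; % is scaled to controls: 0 for no effect and ±100 for the full control effect; nearly all actives have a fitted effect of over 65% in size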
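HTRF cAMP read-out (cAMP-d2 plus anti-cAMP antibody-K in lysis buffer, 30 min RT). Before lysis, cells are exposed to compounds with […] for 30 min at 37C in DPBS containing Ca/Mg, BSA and Tween 20.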
ClpP mod: qHTS Assay for Activators of ClpP; purified B. subtilis ClpP, FRET peptide cleavage, 20 min; actives 1.9% (n = 340,000); Potency, µM (doses to about 57.5 µM), for inactives: at the top dose activity change, negative = active; AID 651965, 2013; active = well fitted falling curve with a large enough effect; inconclusive = small, poorly fitted or top-dose-only effect; inactive = no such curve, though single readings can be large or run the other way; also: potency is read from the fitted curve at half-maximal effect; the source files actives as falling curves though it sought activators and does not explain the sign; nearly all actives have a fitted effect of over 65% in size; many hits overshoot -100%
Target sequence (P80244 whole entry, looked up): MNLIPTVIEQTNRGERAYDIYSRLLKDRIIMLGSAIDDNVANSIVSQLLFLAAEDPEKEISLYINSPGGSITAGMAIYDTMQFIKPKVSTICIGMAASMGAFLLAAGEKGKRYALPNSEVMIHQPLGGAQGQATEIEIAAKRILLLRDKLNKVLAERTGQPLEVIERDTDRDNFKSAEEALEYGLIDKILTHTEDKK
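Purified B. subtilis ClpP, 10 microg/mL final in Tris/HCl pH8 with KCl, BSA, glycerol and Tween-20, cleaved an Abz/nitrotyrosine-quenched decapeptide. Fluorescence (ex 320, em 430) was read at 0 and 20 min at room temperature. Delta was normalized to 5.8 microM ADEP and DMSO/no-enzyme controls.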
CtBP-E1A blk: blocks the CtBP interaction with E1A; actives 0.49% (n = 340,000); activity change, % (test concentration not listed); AlphaScreen GST-E1A/His-CtBP binding, 1536-well; active compounds read low; control for the full effect not named in the record; in the data active means activity change below about -65%; inconclusive means about -30% to -65%; inactive means above about -30%; also: % is scaled to controls: 0 for no effect and ±100 for the full control effect
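Steps: dispense buffer (Tris pH 8.0, NaCl 300 mM, TCEP 1 mM, BSA, Tween 20); add 5X protein mix (GST-E1A, His-CtBP, 125 nM each); pin 23 nL compound; 2 h at 37 °C, dark; add 5X beads (50 ug/mL); 1 h; read.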
Sfp PPTase inh: inhibitors of Bacillus subtilis Sfp phosphopantetheinyl transferase | Q9F4F7 | actives 3.5% (n = 310,000) | Potency, µM, for the others: max response, negative = inhibition, most hits filed as inhibitors | Biochemical Sfp PPTase activity, qHTS; active = well fitted inhibition curve with a large enough effect; inconclusive = small, poorly fitted or top-dose-only effect, or another doubt; inactive = no such curve, though single readings can be large or run the other way;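 also: the enzyme is Sfp with the accession as filed and its product quenches rhodamine fluorescence; potency is read from the fitted curve at half-maximal effect; 0% = enzyme reaction without inhibitor and -100% = no enzyme wells; top concentration of the series not given in the record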
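Reaction rates are the 30-min fluorescence difference (ex 525, em 598 nm) in wells containing 15 nM Sfp, 5 uM rhodamine-CoA and 12.5 uM BHQ-2-YbbR at pH 7.6 with 10 mM MgCl2.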
gsp agonist: activates gsp, the McCune-Albright syndrome mutation; Potency, µM (top dose mostly 76.9 µM), for the others: at the highest dose activation (cAMP increase), most hits filed as activators; AID 624287; gsp mutant cells, cAMP HTRF, 30 min; control for the full effect not named in the record; actives 0.13% (n = 340,000); active = well fitted activation curve with a large enough effect; inconclusive = small, poorly fitted or top-dose-only effect, or another doubt; inactive = no such curve, though single readings can be large or run the other way; cell line not stated here;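 also: phosphodiesterase inhibitor Ro 20-1724 added with compounds to block cAMP breakdown; potency is read from the fitted curve at half-maximal effect; nearly all actives have a fitted effect of over 60% in size; about a fifth of the inactives were tested at one dose only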
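Cells stably selected in G418 were plated at 2000/well, grown 16-24 hr, then given compounds in DMSO with the PDE inhibitor […] (300 uM solution added) for 30 min at 37C; cAMP was read by HTRF.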
TRPV1 PAM: potentiators of human vanilloid receptor 1 (TRPV1). actives 0.02% (n = 320,000). potentiation, % at 8.33 µM. TRPV1-expressing cells, Fluo-8 calcium influx, capsaicin EC20 potentiation; host cell line not named in the record; control for the full effect not named in the record. Q8NER1; active means potentiation above 80%; inconclusive means 30% to 80%; inactive means below 30%; also: 0% is about no effect
Target sequence (Q8NER1 whole entry, looked up): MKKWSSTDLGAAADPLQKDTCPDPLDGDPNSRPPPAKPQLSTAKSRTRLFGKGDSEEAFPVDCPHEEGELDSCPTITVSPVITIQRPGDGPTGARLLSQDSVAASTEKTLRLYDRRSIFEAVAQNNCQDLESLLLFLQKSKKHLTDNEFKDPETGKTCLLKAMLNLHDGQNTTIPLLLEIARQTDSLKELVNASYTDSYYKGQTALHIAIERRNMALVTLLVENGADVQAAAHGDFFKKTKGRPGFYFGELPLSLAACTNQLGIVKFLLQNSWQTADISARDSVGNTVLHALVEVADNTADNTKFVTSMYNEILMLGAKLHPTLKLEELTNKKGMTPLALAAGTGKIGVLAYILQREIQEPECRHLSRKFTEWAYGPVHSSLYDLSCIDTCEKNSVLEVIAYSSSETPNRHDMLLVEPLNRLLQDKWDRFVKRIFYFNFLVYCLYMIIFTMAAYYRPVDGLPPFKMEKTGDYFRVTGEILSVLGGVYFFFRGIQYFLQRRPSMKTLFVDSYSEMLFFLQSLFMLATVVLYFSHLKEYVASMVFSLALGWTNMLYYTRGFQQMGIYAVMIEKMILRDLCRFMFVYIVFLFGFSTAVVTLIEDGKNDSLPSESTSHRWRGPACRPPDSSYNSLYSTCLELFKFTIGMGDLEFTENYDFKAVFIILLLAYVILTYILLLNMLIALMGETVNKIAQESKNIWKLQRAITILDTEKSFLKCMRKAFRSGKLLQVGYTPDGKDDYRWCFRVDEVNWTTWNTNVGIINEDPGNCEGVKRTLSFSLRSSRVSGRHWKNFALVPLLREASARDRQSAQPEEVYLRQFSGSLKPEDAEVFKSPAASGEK
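Cells expressing TRPV1 were dye-loaded with Fluo-8 and read kinetically: 10 s baseline, 3 min after compound (agonist portion), then 2 min after EC20 capsaicin (allosteric enhancer portion). Calcium-bound dye fluorescence at 480/520 nm.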
Menin-MLL FL inh: menin-MLL binding inhibition, fluorescein peptide. Fluorescence polarization, fluorescein-MLL peptide displacement from menin. AID 1766. FP activity change, % at 61.4 µM. 290,000 tested, under 10 active; inconclusive = falling polarisation curve, or a change in total fluorescence; inactive = total fluorescence flat and polarisation flat or rising; no compound was filed as active; the % refers to the polarisation; negative = inhibition;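 also: % of control where 0% means no effect; inhibitors lower the polarisation; unlabelled MLL peptide was the positive control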
Numbers without * were called inactive; ? = inconclusive; · = not tested or not shown; [ ] = dose if it differs, or a comment.

SMILES	gsp antag	ClpP mod	CtBP-E1A blk	Sfp PPTase inh	gsp agonist	TRPV1 PAM	Menin-MLL FL inh
COc1ccc(S(=O)(=O)Nc2cc3[nH]c(=O)oc3cc2C)cc1	7%	-1.4%	-9	5%	?	2	1.0
COc1ccc(NC(=O)c2ccc(-c3ccccc3)cc2)cc1NS(=O)(=O)c1ccc(F)cc1	1%	?	2	?	6%	-15	-0.8
Cc1cccc(NC(=O)CN2CCN(CC(=O)Nc3ccc(-c4ccccc4)cc3)CC2)c1C	-6%	·	3	-5%	-5%	29	-14
CC(=O)Nc1cccc(NC(=O)c2cc(-c3cccnc3)nc3ccc(Cl)cc23)c1	-21%	0.3%	2	1%	-1%[15.4 µM]	6	0.8
COc1cc2c(=O)n(Cc3ccccc3)c(=O)n(CC(=O)C(C)(C)C)c2cc1OC	9%	-6.9%	-2	-3%	33%	-10	-4.2
O=C(NCC1CCCCC1)c1cccc([N+](=O)[O-])c1	7%	·	7	-5%	-37%[inhibitor]	-21	0.2
O=C(Oc1cccc2c(OC(=O)N3CCOCC3)cccc12)N1CCOCC1	3%	-3.1%	-4	17%	-3%	12	3.4
O=C(Nc1nccs1)c1cccc(NC(=O)C(F)(F)F)c1	-1%	-0.5%	-11	2%	22%	-3	0.2
COc1ccc(/C=C/C(=O)OCCCN(C)C)cc1	11%	·	-3	7%	1%[15.4 µM]	3	-2.8
O=C(c1ccccc1)N1CCN(c2ccc([N+](=O)[O-])cc2-n2cccc2)CC1	?	-1.1%	·	-9%	-21%	0	2.1
C=CCn1c(=O)c(C(=O)NCc2ccc3c(c2)OCO3)c(O)c2ccccc21	2%	-3.6%	2	9%	13%[15.4 µM]	18	2.1
O=C(COC(=O)C1=COCCO1)Nc1c(F)cccc1F	5%	·	6	·	26%[15.4 µM]	2	·
Cc1cccc(NC(=O)c2cc(NC(=O)CCCC(=O)O)ccc2Cl)n1	6%	-1.3%	0	2%	-11%	13	-0.9
COc1ccccc1/C=C/C(=O)Nc1cccc(S(=O)(=O)N2CCOCC2)c1	-6%	-13%	-7	·	-27%	-20	·
c1ccc2c(NC3=NCCCCS3)cccc2c1	23%	2.0%	22	15%	27%	-2	1.7
CC(C)(C)c1ccc(OCCON2C(=O)CCC2=O)c(Cl)c1	-19%	1.8%	3	12%	-20%	-12	1.0
O=C(NC1CCS(=O)(=O)C1)c1cc(-c2ccccc2)nc2ccccc12 (stereo not given)	·	·	18	7%	15%[15.4 µM]	-8	3.8
N#CC(c1ccccc1F)(c1ncc(C(F)(F)F)cc1Cl)N1CCOCC1 (stereo not given)	0%	-0.4%	-6	8%	?	·	-0.3
CCCn1c(=N)c(C#N)cc2c(=O)n3ccccc3nc21	2%	4.2%	·	1%	?	-1	-1.7
CC(C)(C)OC(=O)N1CCC[C@H]1c1nnc(SCc2ccc(Cl)cc2)o1	-2%	·	8	-9%	-14%[15.4 µM]	-19	1.5
COc1cc(/C=N/NC(=S)Nc2cccnc2)cc(OC)c1OC	2%	·	?	2%	5%[15.4 µM]	?	-1.1
CN(C)CCCO[C@@H]1[C@H]2OC(C)(C)O[C@H]2O[C@@H]1[C@H](O)CO	5%	0.8%	13	·	·	-5	·
Cc1ccc(N(CC(=O)N2CCCCC2)S(=O)(=O)c2ccc(C)cc2)cc1	-18%	1.4%	-2	5%	-9%	-9	-0.8
CC(SC1=NCCN1S(C)(=O)=O)c1ccccc1 (stereo not given)	12%	1.1%	·	11%	-4%	11	·
CCOC(=O)NC1(Nc2ccc(Cl)cn2)Oc2ccccc2O1	·	·	·	32µM*	·	12	-1.7
O=C(NCc1ccco1)c1ccc2c(c1)C(=O)N(C1CCCCC1)C2=O	-5%	-2.3%	-3	7%	?	22	-6.3
CCOC(=O)c1oc2ccccc2c1NC(=O)COc1ccc(F)cc1	1%	?	0	-5%	-11%	-14	7.9
Cc1cc(C)c(S(=O)(=O)N2CCN(C(=O)c3ccc4c(c3)OCO4)CC2)c(C)c1	-3%	0.6%	-12	15%	-3%[15.4 µM]	3	-0.1
Cc1cccc(-n2nc(CC#N)c(C#N)c2N)c1	13%	-1.9%	·	19%	?	-1	-0.6
COc1ccccc1N1CCN(C2CCCN(C(=O)CCC(C)=O)C2)CC1 (stereo not given)	-5%	-0.3%	6	8%	-25%	-2	-3.7
CC(C)(C)NC(=O)CN(Cc1ccc2c(c1)OCO2)C(=O)CNS(=O)(=O)c1ccc(F)cc1	10%	0.7%	0	4%	-7%[15.4 µM]	-8	·
C[C@@H](C(=O)Nc1cccc(S(=O)(=O)N2CCOCC2)c1)N1C(=O)C2CC=CCC2C1=O (stereo not given in full)	6%	·	2	?	26%	0	0.7
Cc1ccc(C(CC(=O)N2CCCC2)c2ccccc2)c(O)c1C (stereo not given)	-17%	-1.2%	-2	7%	6%	17	1.5
CC12c3ccccc3C(c3ccccc31)C1C(=O)N(Cc3cccnc3)C(=O)[C@H]12 (stereo not given in full)	-4%	-3.8%	-8	5%	10%	-6	7.7
Cc1cccc2cc(CN(Cc3ccc(F)cc3)C(=O)N3CCOCC3)c(=O)[nH]c12	-6%	-26%	6	-1%	-49%[inhibitor]	?	-3.7
COc1ccccc1OCC(=O)NCCc1nc2ccccc2[nH]1	8%	0.1%	4	4%	?	-9	-4.6
COc1ccc(-c2oc(=O)c3cc(OC)c(OC)cc3c2/C=C/c2ccc([N+](=O)[O-])cc2)cc1	-14%	-2.4%	-24	·	-13%	·	·
OCc1ccccc1N=c1ssnc1Cl	·	·	·	8.9µM*	·	10	-0.2
O=C(c1ccc(OC2CCN(Cc3cccc(OCCO)c3)CC2)cc1)N1CCCC1	6%	-1.3%	-8	17%	15%	-10	·
O=C(COC(=O)c1cccs1)c1ccc2ccccc2c1	-19%	?	18	?	5%	?	6.5
Cc1ccc(C(=O)Nc2cccc(S(=O)(=O)N3CCCCC3)c2)cc1S(=O)(=O)N1CCOCC1	?	-2.4%	-4	·	-23%	·	·
CN(Cc1ccccc1)C(=O)CN1C(=O)c2ccccc2C1=O	5%	0.9%	12	18%	-3%[15.4 µM]	0	1.7
O=C(NCC(=O)N(c1cccc(F)c1)C(C(=O)NC1CCCC1)c1ccco1)c1ccco1 (stereo not given)	1%	·	·	15%	-1%[15.4 µM]	2	-2.4
O=C(Nc1ccn(CCCNCC2CCCCC2)c(=O)n1)OCc1ccccc1	·	-1.0%	-14	·	-6%	·	·
COc1cc(NC(=O)C2CC2)c(C(=O)O)cc1OC	0%	?	0	-13%	-3%	9	1.4
Cc1ccc(C)c(S(=O)(=O)N2CCN(C(=O)c3ccc4ccccc4n3)CC2)c1	-22%	-3.3%	-12	·	22%	1	·
O=C(COc1ccc(F)cc1)Nc1ccc(S(=O)(=O)Nc2ncccn2)cc1	-6%	-1.0%	8	·	-1%	2	·
CC(=O)c1c(O)c2ccccc2n(Cc2ccccc2)c1=O	-6%	-0.8%	6	-6%	?	-11	-8.7
O=C(NCCCN1CCN(c2cccc(Cl)c2)CC1)c1cccc(N2CCCC2=O)c1	5%	1.4%	?	8%	6%	7	0.0
CCc1noc(C)c1C(=O)N1CCCC(CCC(=O)NCc2cccc(OC)c2)C1 (stereo not given)	-12%	·	16	11%	17%[15.4 µM]	18	-0.7
O=C(Nc1ccccc1)N1CCC(c2ccccc2)C1 (stereo not given)	-9%	-3.4%	-1	7%	-46%[inhibitor]	-6	-0.5
CC(=O)Nc1ccc(S(=O)(=O)Nc2nc3ccccc3nc2Nc2ccc(N)cc2)cc1	-22%	1.0%	·	9%	16%	6	?
COc1ccc(NC(=O)CN(C)C(=O)c2cc(-c3cccs3)nn2-c2ccccc2)cc1	-38%	1.8%	1	·	3%[15.4 µM]	1	·
Cc1cc(-c2ccc(Br)cc2)n[nH]1	5%	2.1%	0	5%	-30%	-7	4.0
CC(C)(C)C(=O)Nc1nnc(CSCc2ccccc2F)s1	-6%	1.9%	2	-3%	-1%	20	0.5
COc1ccc(CCNc2c3ccccc3nc3ccccc23)cc1OC	-9%	·	0	5%	-3%[15.4 µM]	1	-1.2
CCC(=O)Nc1ccc(NC(=O)CSc2nnc(C(C)C)n2C)cc1	7%	0.5%	27	9%	-19%	-4	-4.3
CC(C)CNC(=S)NNC(=O)c1csc2c1CCC(C)C2 (stereo not given)	-11%	1.3%	6	8%	-13%	-10	0.6
CN1C(=O)C(O)(c2nnc(-c3ccccc3)o2)c2ccccc21 (stereo not given)	·	·	22	14%	25%[15.4 µM]	0	-1.1
COC(=O)[C@]1(S(=O)(=O)c2ccccc2)C[C@@H]2ON=C(c3ccc(OC)cc3)[C@@H]2C1	-2%	2.1%	4	-3%	·	4	5.7
CC(C)CC(NC(=O)c1ccco1)C(=O)Nc1ccc2c(c1)OCCO2 (stereo not given)	3%	0.2%	3	-10%	0%	-11	2.7
Cc1cc(C)cc(SCc2noc(C(=O)NC(C)C)c2C(=O)O)c1	-17%	0.2%	3	7%	·	1	0.4
